MgrA-DNA mod – S. aureus MgrA-DNA binding modulation; fluorescence polarization; AID 602314; inhibition, %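 (about 10 µg/mL by stock and volumes)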; hit rate 0.13% among 84,000;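 active = above 50% in either of two replicates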;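 also: 0% = protein plus DNA without compound and 100% = DNA alone without protein; higher means less MgrA bound to DNA so lower polarization; one replicate is shown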
S aureus helic – blocks Staphylococcus aureus DNA helicase; purified S. aureus helicase, fluorescence unwinding assay; about half of the hits fall short of the stated cut; inhibition, %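 (tested at about 80 µM)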; hit rate 0.05% among 120,000;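 active = both duplicates at 50% or more, or one of them with a favoured structure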;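 also: 0% = mean of negative control wells and 100% = mean of positive control wells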
Active calls of the source: *; nt = not tested or not shown; & = joins results of further samples. Not all compounds are listed. The share of hits here may be higher or lower than overall.

SMILES	MgrA-DNA mod	S aureus helic
CC(NC(=O)OC1CCCC1)(C(F)(F)F)C(F)(F)F	nt	-30.0
CCC(Sc1nc2c(sc3ccccc32)c(=O)n1CCCOC)C(=O)N1CCOCC1 (stereo unspecified)	nt	-1.0
CCOC(=O)c1[nH]c(COC(=O)c2ccc(Cl)c(S(=O)(=O)N3CCOCC3)c2)c(C(=O)OCC)c1C	nt	1.0
c1ccc(-c2n[nH]c(-c3ccccn3)n2)nc1	nt	3.0
O=C(Nc1cc(C(=O)Nc2ccccc2O)cc(C(=O)Nc2ccccc2O)c1)c1ccccc1	-0.6	7.0
CC(C)NCC(O)c1ccc2ccccc2c1 (stereo unspecified)	4.2&-3.0	nt
CCOC(=O)Nc1ccc(C)cn1	nt	-10.0
Cc1ccc(Cc2c(C)nc3c(C(=O)NC4CCCC4)cnn3c2C)cc1	0.5	17.0
CNC(=O)c1ccc(Oc2ccc(C(=O)NC)cc2)cc1	3.2	-7.0
O=C(Cn1c(=O)cnc2ccccc21)N1CCN(S(=O)(=O)c2ccccc2)CC1	nt	-6.0
Cn1nc(-c2ccccc2)[nH]c1=O	-0.9	nt
Cc1cc(C(=O)COC(=O)C2CCN(S(=O)(=O)c3cccs3)CC2)c(C)n1C	nt	-3.0
N#Cc1ccc(OCC(=O)N(C2CCCCC2)C2CCS(=O)(=O)C2)cc1 (stereo unspecified)	nt	-3.0
CC1(C)CC(N2COc3ccc4c5c(oc4c3C2)C(=O)c2ccccc2C5=O)CC(C)(C)N1	nt	36.0
O=C(O)/C(=N\NC(=O)c1ccccc1)c1ccccc1	nt	12.0
COc1cc2c(cc1NC(=O)C(C)Sc1nc3ccccc3n1C)oc1ccccc12 (stereo unspecified)	nt	-12.0
O=C(/C=C/c1ccc(Br)o1)OCC(=O)c1c[nH]c2ccccc12	nt	-3.0
Cc1cc(OC(=O)CNC(=O)OCc2ccccc2)cc2oc(=O)c3ccccc3c12	5.0	14.0
COc1ccc(C2CC(c3c(-c4ccccc4)c4cc(Br)ccc4[nH]c3=O)=NN2C(=O)c2ccncc2)cc1 (stereo unspecified)	0.5	nt
Cc1ccccc1-n1nnc2c(=O)oc3ccccc3c21	nt	17.0
Cc1ccc(N2C(=O)C(N3C(=O)c4ccccc4C3=O)C2c2ccc3c(c2)OCO3)cc1 (stereo unspecified)	nt	-11.0
CCc1cc(C(O)(C(F)(F)F)C(F)(F)F)c(O)c(C(O)(C(F)(F)F)C(F)(F)F)c1	nt	38.0
C=C(C)C(=O)Nc1ccc(Oc2ccccc2F)nc1	0.4	nt
CC1(C)CC(=O)c2c(oc3ccc(NS(=O)(=O)c4ccc5ccccc5c4)cc23)C1	0.9	11.0
Cc1cc(NC(=O)Nc2ccc(F)cc2)c(C(F)(F)F)o1	nt	13.0
FC(F)(F)c1ccnc(Sc2n[nH]c(C(F)(F)F)n2)c1	nt	4.0
CN(CCc1ccccn1)S(=O)(=O)c1ccc(F)cc1	nt	8.0
COC(=O)c1cc2ccccc2c(-c2c(O)ccc3ccccc23)c1O	-1.7	0.0
Cc1onc(-c2c(Cl)cccc2Cl)c1C#N	3.2	nt
C/C(=C/c1ccccc1)C(=O)N1CCN(Cc2ccccc2)CC1	0.6	-6.0
CCOC(=O)Cc1[nH]nc2c1C(c1ccc(Cl)cc1)C(C#N)=C(N)O2 (stereo unspecified)	0.0	20.0
CCOc1ccc(CC(=O)Nc2ccccc2)cc1OCC	-0.8	13.0
CS(=O)c1nc(-c2ccc(Br)cc2)cc(-c2ccccc2)c1C#N (stereo unspecified)	3.4	0.0
COc1cc(SC#N)ccc1O	3.0	-10.0
N#CC1(N)CCCC1	nt	24.0
NC(=O)c1ccccc1N	nt	7.0
S=c1nc(-c2ccco2)n(Cc2ccccc2)c(=S)n1C(=NCc1ccccc1)c1ccco1	-3.1	nt
COc1ccc(S(=O)(=O)NCc2ccccn2)cc1	nt	4.0
Cc1cc(C)nc(NNS(=O)(=O)c2ccc(Cl)cc2)n1	nt	-20.0
Cc1[nH]n(-c2ccccc2)c(=O)c1C=Nc1ccc(S(=O)(=O)N=C(N)N)cc1	1.5	9.0
CCCCc1ccc(NC(=O)CC#N)cc1	0.5	1.0
Cn1c(O)c(/C=N/c2sc3c(c2C#N)CCC3)c(=O)n(C)c1=O	nt	-12.0
CC(C(=O)O)N1CCCC1 (stereo unspecified)	-5.3	8.0
CCCOC(=O)CN1C(=O)c2ccc(Br)cc2C1=O	nt	11.0
O=C(Nc1nncs1)c1cc(-c2cccc(Br)c2)nc2ccccc12	2.5	nt
O=c1c2c3c(sc2ncn1Cc1ccccc1)CCC3	nt	-13.0
Nc1ccc2nc(C(F)(F)F)[nH]c2c1	-0.4&-6.2	10.0&5.0
CS(=O)(=O)c1ccc(-c2ccccc2)cc1	-1.3	nt
O=C1NC(=S)N/C1=C/c1cc(Br)ccc1OCc1cccc2ccccc12	-2.6	nt
COCCCn1c(SCC(=O)N2CC(=O)Nc3ccccc32)nnc1-c1ccoc1C	-0.8	5.0

(next part)
SMILES	MgrA-DNA mod	S aureus helic
COCC(=O)Nc1nc2nc(-c3ccccc3)cc(=O)n2[nH]1	nt	16.0
COc1ccc(C(=O)NCCn2cc(SCC(=O)Nc3ccccc3)c3ccccc32)cc1	-0.3	9.0
CS(=O)(=O)N(CC(=O)Nc1ccccc1)Cc1ccc(Cl)cc1	0.1	6.0
O=C(CC1=NS(=O)(=O)c2ccccc2N1)NCc1ccc(F)cc1	nt	-25.0
COc1ccc2[nH]cc(-c3csc(N)n3)c2c1	-0.5	-21.0
CN1/C(=C/C#N)Sc2ccccc21	nt	-74.0
CCOC(=O)c1ccccc1NC(=O)C12CC3CC(CC(C3)C1)C2	-0.1	12.0
CC(=O)Nc1nc2nc(C(F)(F)F)cc(=O)n2[nH]1	-5.6	10.0
Cc1c(NC(=O)Nc2ccccc2)sc2nc(-c3ccc(Cl)cc3)nn12	-0.2	nt
Nc1ccccc1C(=O)NCCc1ccc(Cl)cc1	-1.4	nt
Cc1cc(-n2cnc(-c3cn[nH]c3C)n2)no1	nt	21.0
COc1ccccc1C(=O)O	-5.7	17.0
CCCCCc1ccc(-c2ccc(C(=O)Nc3ccc(Cl)c4c3C(=O)c3ccccc3C4=O)cc2)cc1	-0.8	nt
O=c1cc(-c2cccnc2)nc2cc(-c3ccco3)[nH]n12	nt	-12.0
Cc1ccc2c(COC(=O)c3ccc(N(C)C)cc3)cc(=O)oc2c1	nt	-6.0
CC1CC2c3cccc(C(=O)O)c3C(=O)N2c2ccc(Cl)cc21 (stereo unspecified)	0.2	-21.0
O=C(OCc1ccco1)c1cccnc1Cl	-0.2	-18.0
CCSc1nnc2c(n1)OC(c1ccc([N+](=O)[O-])o1)Nc1ccccc1-2 (stereo unspecified)	20.4	nt
Cc1cc(C(N)=O)c(C)n1CCCn1ccnc1	nt	-11.0
COC(=O)CC1Oc2ccccc2N(Cc2ccc(C)cc2)C1=O (stereo unspecified)	0.2	6.0
Cc1cccc(/C=N/NC(=O)c2ccccn2)c1O	0.6	20.0
CN1C(c2ccccc2)=CC(c2ccccc2)n2ncnc21 (stereo unspecified)	0.6	-11.0
CCCCn1c(CCCNC(=O)C(C)C)nc2ccccc21	-0.3	14.0
CCOC(=O)/C=C1\SC(=O)CN1CC(=O)Nc1ccccc1	nt	-38.0
COc1cc(N2C(=O)c3ccccc3C2=O)nc(OC)n1	0.5	6.0

Shown with each value named: two of the compounds above
Cc1cccc(/C=N/NC(=O)c2ccccn2)c1O
- MgrA-DNA mod: 0.6
- S aureus helic: 20.0
CN1C(c2ccccc2)=CC(c2ccccc2)n2ncnc21 (stereo unspecified)
- MgrA-DNA mod: 0.6
- S aureus helic: -11.0

(further entries)
SMILES	MgrA-DNA mod	S aureus helic
CC(C)OC(=O)c1ccc2[nH]c3c(c2c1)CCCC3	-1.0	10.0
CC(C)CCn1c(CNC(=O)c2ccccc2)nc2ccccc21	1.5	1.0
CC1CCN(S(=O)(=O)c2ccc(-c3csc(-c4cccnc4)n3)cc2)CC1	nt	-26.0
Cc1ccc(S(C)(=O)=NC(=O)CSc2ccc(Cl)cc2)cc1 (stereo unspecified)	-2.5	nt
FC(F)(F)c1ccnc(NCCNC(=S)NCc2ccco2)n1	0.7	nt
O=C(COC(=O)Cn1[nH]c(=O)c2ccccc2c1=O)Nc1ncc(Cl)cc1Cl	nt	-11.0
COc1cc(C(=O)Nc2ccc3oc(-c4cccc(Br)c4)nc3c2)cc(OC)c1OC	0.1	nt
NCCc1ccn[nH]1	-0.3	nt
CCN(CC)S(=O)(=O)c1cccc(C(=O)O)c1	-2.5	1.0
COCC(C)n1c(C)ccc1C (stereo unspecified)	2.3	-34.0
Cc1ccc(Sc2ncnc3sccc23)cc1	-2.0	nt
O=C(NC1CC1)C1=CCN(S(=O)(=O)c2ccc(Br)cc2)CC1	nt	-15.0
COc1ccc(-c2nc3cc(N=Cc4ccccc4O)ccc3o2)cc1	-0.6	0.0
O=c1c(Br)c(NCc2ccco2)cnn1-c1ccccc1	nt	7.0
O=C(O)c1sccc1S(=O)(=O)Nc1ccccc1N1CCOCC1	-7.5	nt
CC1Oc2ccccc2OC1C(=O)N1CCOCC1 (stereo unspecified)	-1.1	-1.0
COc1ccc(C(=O)CSc2nnc(C3CCCCC3)n2N)c(OC)c1	nt	5.0
CCCCNS(=O)(=O)c1ccc(/C(C)=N/NC(=O)c2ccc(N)cc2)cc1	nt	8.0
COc1ccc(N2CCN(C(=O)COC(=O)Cc3ccccc3)CC2)cc1	nt	-13.0
COC(=O)CSc1cccc2c1C(=O)CC2c1ccccc1 (stereo unspecified)	1.5	nt
O=C(O)CCSc1ccc(Cl)cc1	-0.1	-10.0
COc1cccc2c1OC1(CCN(C(C)C)CC1)N1N=C(c3cccs3)CC21 (stereo unspecified)	nt	10.0
S=C(NCC1CC1)Nc1ccc2[nH]ccc2c1	-2.4	nt
N#CC1=C(SCC(=O)Nc2ccccc2)NC(=O)CC1c1cccs1 (stereo unspecified)	nt	-44.0
C#C[C@]1(O)CC[C@H]2[C@@H]3CCC4=CC(=O)CC[C@@H]4[C@H]3CC[C@@]21C	4.0	nt

Already shown: entries from further up.
SMILES	MgrA-DNA mod	S aureus helic
CC1Oc2ccccc2OC1C(=O)N1CCOCC1 (stereo unspecified)	-1.1	-1.0
COc1ccc(C(=O)CSc2nnc(C3CCCCC3)n2N)c(OC)c1	nt	5.0
CCCCNS(=O)(=O)c1ccc(/C(C)=N/NC(=O)c2ccc(N)cc2)cc1	nt	8.0

Additional compounds:
SMILES	MgrA-DNA mod	S aureus helic
CNC(=O)/C(C#N)=C/c1c(Oc2ccccc2)nc2ccccn2c1=O	nt	23.0
COc1ccc(C(=O)NC(=O)CSc2nc3ccccc3n2CCC#N)cc1	nt	16.0
Cc1cccc(C)c1Nc1nn2c(=O)c3ccccc3nc2s1	7.2	9.0
Cn1c(C(=O)NC2CCCCC2)cc2c(=O)[nH]c3ccccc3c21	nt	-10.0
CSc1ccc(Sc2ccc(SC)cc2)cc1	0.5	1.0
O=C(O)CC1(CC(=O)N2CCN(C(=O)CC3(CC(=O)O)CCCCC3)CC2)CCCCC1	nt	-12.0
O=C(NCCc1ccccc1)NC1CCCCC1	1.4	1.0
COc1ccccc1N(CC(O)CN1CCOCC1)S(=O)(=O)c1ccc(C)cc1 (stereo unspecified)	1.1	8.0
Cc1cccc(NC(=O)COC(=O)CN=C2NS(=O)(=O)c3ccccc32)c1C	nt	14.0
COc1cc(C(=O)Nc2c(C(=O)c3ccccc3)oc3ccccc23)cc(OC)c1OC	1.1	5.0
O=C(Nc1cccnc1)C1CCCS1 (stereo unspecified)	0.7	nt
COc1ccc(-n2cnnc2SCCC#N)cc1	nt	-8.0
Nn1c(Cc2ccccc2F)nnc1SCC(=O)c1ccc[nH]1	nt	-4.0
CCOc1ccc(N2C(=O)c3ccccc3NC2c2ccc(Br)cc2)cc1 (stereo unspecified)	0.6	nt
Cc1ccccc1Nc1nc(N)nc(CSc2ccc(S(=O)(=O)N(C)C)cn2)n1	nt	3.0
O=C(O)C(c1ccc(Cl)cc1)c1ccc(Cl)cc1	3.0	nt
S=c1sc2c(N3CCN(C/C=C/c4ccccc4)CC3)ncnc2n1-c1ccccc1	0.1	8.0
CCOC(=O)c1ccc(NS(=O)(=O)c2cc(-c3cc(C)no3)ccc2C)cc1	nt	-3.0
CCOC(=O)CCC(=O)O[C@H]1[C@H](O[C@@H]2[C@@H](C)[C@H](O[C@H]3C[C@@](C)(OC)[C@@H](O)[C@H](C)O3)[C@@H](C)C(=O)O[C@H](CC)[C@@](C)(O)[C@H](O)[C@@H](C)C(=O)[C@H](C)C[C@@]2(C)O)O[C@H](C)C[C@@H]1N(C)C	-0.7	nt
COc1ccccc1NC(=S)N(Cc1ccccc1)Cc1ccc(C)o1	nt	6.0
CC(C)CCN(C(C)c1cccs1)S(=O)(=O)c1csc(C(N)=O)c1 (stereo unspecified)	nt	13.0
N#Cc1cccc(CSc2ccc(Cl)cc2)c1	1.9	nt
O=C(CC(C(=O)c1cccnc1)c1ccc2c(c1)OCO2)c1ccc(Cl)cc1 (stereo unspecified)	-2.0	nt
O=c1[nH]c(CN2CCCC2c2ccc3c(c2)OCCO3)nc2cc(Cl)ccc12 (stereo unspecified)	nt	-12.0
Cc1occc1-c1nnc(SCC(=O)N(CC(C)C)c2c(N)n(CC(C)C)c(=O)[nH]c2=O)n1C	nt	0.0
Cc1onc(-c2ccccc2Cl)c1C(=O)NCc1nc(-c2ccc(C(F)(F)F)cc2)no1	-2.9	nt
